Screening data (PubChem BioAssay)
VACV mCherry inh: vaccinia inhibition (mCherry reporter) | AID 720579 | Potency, µM (highest dose often 36.5 µM), for inactives: at the top dose activity change, negative = inhibition, hits mostly inhibitors | 0.63% of 310,000 active | Vaccinia virus mCherry reporter infection, fluorescence; about a quarter of the inactives have no number; active = well fitted inhibition curve with a large enough effect; inconclusive = small, poorly fitted or top-dose-only effect; inactive = no such curve, though single readings can be large or run the other way; tested in A549 cells; also: nearly all actives have a fitted effect of over 35% in size; inactives centre near -10
Vaccinia Venus: inhibitors of vaccinia virus (Venus reporter); 0.46% of 330,000 active; Potency, µM (highest dose often 36.5 µM), without a hit: top-dose activity change, negative = inhibition, actives largely listed as inhibitors; Vaccinia virus Venus reporter expression, fluorescence; active means well fitted inhibition curve with a large enough effect; inconclusive means small, poorly fitted or top-dose-only effect; inactive means no such curve, though single readings can be large or run the other way; tested in A549 cells; also: nearly all actives have a fitted effect of over 30% in size; inactives centre near -10
* marks the source's active call; other numbers are inactive results; i = inactive; ? = inconclusive; · = no result given; & = joins results of further samples; [ ] = another dose, or the depositor's remark. % is scaled to controls: 0 for no effect and ±100 for the full control effect; potency is read from the fitted curve at half-maximal effect.

SMILES	VACV mCherry inh	Vaccinia Venus
CC1=C(C(=O)Nc2ccccc2F)C(c2ccsc2)C2=C(CC(C)(C)CC2=O)N1 (stereo unspecified)	-9%	?
O=C(NCc1ccc(Cl)cc1)c1cc(-c2cccs2)on1	-23%	-17%
Cc1cc(C)nc(N2CCCC(C(=O)Nc3cc(F)ccc3C)C2)n1 (stereo unspecified)	-14%	-5%
CCOc1ccc(CN(C)CC(=O)Nc2ccccc2C(=O)NC2CC2)cc1	-3%	-19%
COC(=O)c1sccc1NC(=O)Nc1cccc(Cl)c1Cl	-5%	-2%
O=C(c1cccs1)N1CCN=C1SCc1ccc(F)cc1	-20%	-11%
CCC(Cc1ccccc1)NC(=O)C1CCC(CNc2c(N3CCCC3)c(=O)c2=O)CC1 (stereo unspecified)	2%	-3%
COc1cc2c(c(OC)c1OC)C(c1ccccc1C)CC(=O)O2 (stereo unspecified)	i	-10%
NC(=O)CSc1nnc(-c2cnccn2)n1Cc1ccco1	i	-15%
Cc1c(S(=O)(=O)N2CCN(c3cccc(C(F)(F)F)c3)CC2)c(=O)n(C)c(=O)n1C	i	-15%
CC(NC(=O)c1ccco1)C(=O)NC(C)c1cc(F)c(Cl)cc1Cl (stereo unspecified)	-10%	-8%
COc1ccc(OC)c(NC(=O)N[C@H](Cc2ccccc2)C(=O)NN)c1	-11%	-6%
CC(C)(C)OC(=O)N1CCC(C(=O)Nc2cccc(C(=O)NCCCCc3ccccc3)c2)CC1	-1%	-9%
CC(C)N(Cc1nc(-c2ccccc2)no1)C(=O)C(C)(C)C	·	-12%
CCCCn1c(N)c(N(CCOC)C(=O)COC(=O)COc2c(C)cccc2C)c(=O)[nH]c1=O	-4%	4%
CCCNC(=O)COC(=O)CCC(=O)c1cccs1	i	-9%
C/C(=C1/SC(N2CCOCC2)=NC1=O)c1ccc(Br)cc1	·	-9%
CCc1ccccc1N(C)C(=O)c1cc2c(=O)oc3ccccc3c2s1	-9%	2.5µM*
CCCOc1ccc(C(=O)Nc2ccc3nn(-c4ccc(OC)c(Cl)c4)nc3c2)cc1	0%	-8%
O=C(NN1C(=O)CSC1=S)C(=O)NN1C(=O)CSC1=S	5%	-1%
Cc1ccc(-c2nc3ccccc3c(=O)n2-c2cccc(C)n2)cc1	4%	-1%
Cc1ccc2nc(SCC(=O)N3c4ccccc4CC3C)c(C)cc2c1 (stereo unspecified)	·	-22%
CCOC(=O)c1c(NC(=O)c2cc(=O)c3c(C)cc(C)cc3o2)sc(C)c1C	3%	-1%
CCCCn1c(SCC2CCCO2)nc2cc(S(N)(=O)=O)ccc21 (stereo unspecified)	·	2%
COc1ccc(CCNC(=O)CCN2C(=O)C3CC=CCC3C2=O)cc1OC (stereo unspecified)	-19%	-7%
CCC(=O)NNc1ncnc2c1cnn2-c1ccc(C)c(Cl)c1	-18%	-5%
CCCNc1nc2c(c(=O)n(C)c(=O)n2C)n1Cc1cccc(C)c1	?	-29%
Cc1cc(NC(=O)COC(=O)CCNS(=O)(=O)c2ccccc2)n(-c2ccccc2)n1	-9%	-1%
CCOC(=O)c1c(C)[nH]c(C(=O)OCC(=O)NCCc2ccc(OCC)c(OCC)c2)c1C	-12%	-10%
CCCCN(C(=O)CN1CC(C)OC(C)C1)c1c(N)n(CC(C)C)c(=O)[nH]c1=O (stereo unspecified)	i	-5%
COC(=O)c1ccc(C2/C(=C(\O)c3cccc(OC)c3)C(=O)C(=O)N2CCCN(C)C)cc1 (stereo unspecified)	-16%	-10%
COc1cccc(CC2(CO)CCCN(Cc3ccc(CO)o3)C2)c1 (stereo unspecified)	i	-10%
S=C(NCCc1ccccc1)N1Cc2ccc(Br)cc2-n2nncc2C1	8%	-2%
Cc1ccc2[nH]c(=O)c3cc(C(=O)NC4CCC(C)CC4)sc3c2c1 (stereo unspecified)	-26%	-21%
Cc1ccccc1CN1C(=O)CSc2ccc(C(=O)N3CCOCC3)cc21	·	-1%
CC(C)Oc1ccc(C(=O)NCCCNC(=O)c2ccccn2)cc1	-8%	4%

Some of the entries so far, comma-delimited.
compound,VACV mCherry inh,Vaccinia Venus
NC(=O)CSc1nnc(-c2cnccn2)n1Cc1ccco1,i,-15%
Cc1c(S(=O)(=O)N2CCN(c3cccc(C(F)(F)F)c3)CC2)c(=O)n(C)c(=O)n1C,i,-15%
CC(NC(=O)c1ccco1)C(=O)NC(C)c1cc(F)c(Cl)cc1Cl (stereo unspecified),-10%,-8%
COc1ccc(OC)c(NC(=O)N[C@H](Cc2ccccc2)C(=O)NN)c1,-11%,-6%
CC(C)(C)OC(=O)N1CCC(C(=O)Nc2cccc(C(=O)NCCCCc3ccccc3)c2)CC1,-1%,-9%
CC(C)N(Cc1nc(-c2ccccc2)no1)C(=O)C(C)(C)C,·,-12%
CCCCn1c(N)c(N(CCOC)C(=O)COC(=O)COc2c(C)cccc2C)c(=O)[nH]c1=O,-4%,4%
CCCNC(=O)COC(=O)CCC(=O)c1cccs1,i,-9%
C/C(=C1/SC(N2CCOCC2)=NC1=O)c1ccc(Br)cc1,·,-9%
CCc1ccccc1N(C)C(=O)c1cc2c(=O)oc3ccccc3c2s1,-9%,2.5µM*
CCCOc1ccc(C(=O)Nc2ccc3nn(-c4ccc(OC)c(Cl)c4)nc3c2)cc1,0%,-8%
O=C(NN1C(=O)CSC1=S)C(=O)NN1C(=O)CSC1=S,5%,-1%
Cc1ccc(-c2nc3ccccc3c(=O)n2-c2cccc(C)n2)cc1,4%,-1%
Cc1ccc2nc(SCC(=O)N3c4ccccc4CC3C)c(C)cc2c1 (stereo unspecified),·,-22%
CCOC(=O)c1c(NC(=O)c2cc(=O)c3c(C)cc(C)cc3o2)sc(C)c1C,3%,-1%
CCCCn1c(SCC2CCCO2)nc2cc(S(N)(=O)=O)ccc21 (stereo unspecified),·,2%
COc1ccc(CCNC(=O)CCN2C(=O)C3CC=CCC3C2=O)cc1OC (stereo unspecified),-19%,-7%
CCC(=O)NNc1ncnc2c1cnn2-c1ccc(C)c(Cl)c1,-18%,-5%
CCCNc1nc2c(c(=O)n(C)c(=O)n2C)n1Cc1cccc(C)c1,?,-29%
Cc1cc(NC(=O)COC(=O)CCNS(=O)(=O)c2ccccc2)n(-c2ccccc2)n1,-9%,-1%
CCOC(=O)c1c(C)[nH]c(C(=O)OCC(=O)NCCc2ccc(OCC)c(OCC)c2)c1C,-12%,-10%
CCCCN(C(=O)CN1CC(C)OC(C)C1)c1c(N)n(CC(C)C)c(=O)[nH]c1=O (stereo unspecified),i,-5%
COC(=O)c1ccc(C2/C(=C(\O)c3cccc(OC)c3)C(=O)C(=O)N2CCCN(C)C)cc1 (stereo unspecified),-16%,-10%
COc1cccc(CC2(CO)CCCN(Cc3ccc(CO)o3)C2)c1 (stereo unspecified),i,-10%
S=C(NCCc1ccccc1)N1Cc2ccc(Br)cc2-n2nncc2C1,8%,-2%
Cc1ccc2[nH]c(=O)c3cc(C(=O)NC4CCC(C)CC4)sc3c2c1 (stereo unspecified),-26%,-21%
Cc1ccccc1CN1C(=O)CSc2ccc(C(=O)N3CCOCC3)cc21,·,-1%
CC(C)Oc1ccc(C(=O)NCCCNC(=O)c2ccccn2)cc1,-8%,4%

Additional results.
SMILES	VACV mCherry inh	Vaccinia Venus
O=C(CC1OC(=O)c2ccccc21)Nc1ccccc1N1CCOCC1 (stereo unspecified)	·	-27%
CCOc1ccc(C2C(C(=O)Nc3ccc(OC)cc3)=C(C)Nc3nc(CCCO)nn32)cc1 (stereo unspecified)	-6%	4%
CCC(=O)Nc1ccc2ccccc2c1	i	-11%
NS(=O)(=O)c1ccc2nc(NC(=O)Nc3ccccc3F)sc2c1	?	-22%
CCSc1nnc(Cn2c(=O)sc3ccccc32)n1-c1ccccc1C	-7%	4%
CCCN(CCC)CCCNC(=O)c1cc2c(=O)[nH]c3ccccc3c2n1C	-6%	4%
Cc1cc2ccccc2nc1SCC(=O)N1c2ccccc2CC1C (stereo unspecified)	·	-6%
CN1CCN(c2ccc(NC(=O)CN3CCOCC3)cc2F)CC1	-3%	-6%
CCC(C(=O)OC)n1cnc2c(nnn2-c2ccccc2)c1=O (stereo unspecified)	i	-13%
COc1cccc(-c2cnc(C(O)c3cc(C)cc(C)c3)[nH]2)c1 (stereo unspecified)	i	-21%
CCc1ccc(-c2n[nH]c(=O)c3ccccc23)cc1	i	-12%
CC[C@@H]1Cc2[nH][nH]c(=O)c2[C@@H](c2ccc(Cl)cc2)O1	2%	-6%
CCCNC(=O)N1[C@H]2CC[C@@H]1C(C(=O)OC)=C(c1ccccc1)C2	-13%	-3%
CCc1nc2ccc(C(=O)NCCc3ccccn3)cn2c1N(C)CCC(C)C	i	-14%
CCCCNC(=O)Cn1c(SCc2cccc(C)c2)nc2ccncc21	40%[activator]	5%
CCc1c(C)nc2ncnn2c1NCCc1ccc(Cl)cc1	-28%	-22%
Cc1ccc(NC(=O)Cn2nnc3ccccc3c2=O)cc1	-12%	13%
C#Cc1ccc([C@@H]2C=C(C(=O)N3CCN(Cc4ccc5c(c4)OCO5)CC3)O[C@H](OCCCCO)C2)cc1	?	-3%
O=C(OCCN1C(=O)c2ccccc2C1=O)c1cccs1	-5%	-4%
CCC/C=N/NC(=O)c1[nH]c2c([N+](=O)[O-])cccc2c1C	-28%	-12%
CC1CN(/C=C/C=O)C(C)CC1OC(=O)c1ccccc1 (stereo unspecified)	-12%	-10%
Oc1ccc(N=Nc2c(O)ccc3ccccc23)cc1	?	-26%
CCOc1ccc(N2CC(NC(=O)C3CCCCC3)CC2=O)cc1 (stereo unspecified)	-6%	-11%
Clc1ccccc1Nc1nc(NCc2cccs2)nc2ccsc12	-19%	-20%
O=C(CSCc1ccc([N+](=O)[O-])cc1)N/N=C/c1cccnc1	-8%	-1%
COc1cc(S(=O)(=O)N2CCCCCC2)ccc1-n1cnnn1	-1%	-18%
CCCCn1c(N)c(N(CC(C)C)C(=O)c2cc(C)oc2C)c(=O)[nH]c1=O	-12%	-14%
O=C1CCCC2=C1C(c1ccc(Cl)cc1)N=C(Nc1nc3ccccc3o1)N2 (stereo unspecified)	-13%	-13%
CN(Cc1ccccc1)C(=O)c1cccnc1	i	-9%
COc1cc2sc3cc(NCc4ccc5c(c4)OCO5)ccc3c(=O)c2cc1OC	?	?
CC(C)c1ccc(-c2c(NCCc3ccccc3)c(=O)c2=O)cc1	-6%	-15%
Cc1c(NC(=O)C(=O)/C=C(\O)c2ccc(Br)cc2)c(=O)n(-c2ccccc2)n1C	-14%	-7%
COc1cc(OC)c(OC)cc1/C=C/c1ccnc2ccccc12	?	-26%&-18%
CC1CCCC(C)N1S(=O)(=O)c1ccc(S(=O)(=O)NCCc2ccncc2)cc1 (stereo unspecified)	-3%	-14%
COC(=O)c1ccc(Nc2nnc(-c3ccc(C)c(S(=O)(=O)NCC4CCCO4)c3)c3ccccc23)cc1 (stereo unspecified)	-26%	-18%
COc1ccc(/C=C/c2onc(C)c2S(=O)(=O)N2CCC(C(=O)N3CCCCC3)CC2)cc1	-15%	-11%
CCOC(=O)N1CCN(c2ccc(S(=O)(=O)N3CCOCC3)cc2[N+](=O)[O-])CC1	i	-10%
COc1cc(N(C)C)c([N+](=O)[O-])cc1C(=O)N1CCOCC1	9%	-1%
COC(=O)C1=C(c2ccccc2OCc2ccccc2)C[C@@H]2CC[C@H]1N2C(=O)NCc1ccc(C(F)(F)F)cc1	-14%	?
CN(CCc1ccccn1)C(=O)CCC1CCCN(C(=O)c2c(F)ccc(F)c2F)C1 (stereo unspecified)	i	-6%
CCN(CC)CCNS(=O)(=O)c1ccc(OC)c(Br)c1	-11%	3%
CC(C)C[C@H]1CN([C@@H](Cc2ccccc2)CN2CCC[C@H]2CN2C(=O)C(=O)NC[C@@H]2Cc2ccc(O)cc2)C(=O)C(=O)N1CCc1ccccc1	-5%	-19%
COc1ccc(NC(=O)CN(C)C(=O)CCc2ccccc2)cc1	-18%	-8%
O=C(CCn1c(=O)c2ccccc2n(CC(=O)N2CCN(c3ccccc3)CC2)c1=O)NCc1ccco1	-8%	10%
O=S(=O)(NCc1ccccn1)c1ccc(Cl)s1	i	-20%
Cc1cc(C(=O)Nc2c(C)n(C)n(-c3ccccc3)c2=O)cs1	i	-2%
CCc1ccc(-n2c(=S)sc3c(=O)n(-c4ccccc4OC)c(=S)[nH]c32)cc1	i	-5%
FC(F)Sc1ccc(Nc2ncnc3nc[nH]c23)cc1	?	?
C/C(=N/NC(=O)c1cc(-c2ccc(Br)s2)[nH]n1)c1ccco1	-10%	-20%
O=C(c1ccc(CNS(=O)(=O)c2ccccc2)cc1)N1CCN(Cc2ccccc2)CC1	-3%	-25%
Cc1ccc(N(C)C(=O)c2sc3nc4n(c(=O)c3c2C)CCCC4)cc1C	-17%	-25%
Nc1ccc(S(=O)(=O)Nc2nccs2)cc1	-13%&-15%	0%&-12%
